Compound activity (PubChem)
FGF22 binding = FGF22 (human) thermal shift binding | Q9HCT0 | recombinant FGF22 thermal shift, SYPRO orange fluorescence; percent of sucrose octasulfate shift, DMSO zero | calls only at 9.99 µM | 340,000 tested, 1.5% active;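 active means melting point raised past a set limit in the mean and every replicate; three in four hits are not shown here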
Target sequence (Q9HCT0 whole entry, looked up): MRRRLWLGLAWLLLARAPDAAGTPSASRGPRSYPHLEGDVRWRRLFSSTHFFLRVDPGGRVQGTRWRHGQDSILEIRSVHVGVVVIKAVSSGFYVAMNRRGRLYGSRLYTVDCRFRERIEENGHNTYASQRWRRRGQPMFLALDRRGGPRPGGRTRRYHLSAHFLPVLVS
Calls only; i = inactive.

smiles | FGF22 binding
C[C@@H]1CN([C@@H](C)CO)C(=O)c2cc(C#CCN(C)C)cnc2O[C@@H]1CN(C)C(=O)c1cccc(F)c1 | i
COc1ccc2c3c(n(C)c2c1)[C@@H](CO)N(C(=O)Nc1ccc(F)cc1)CC31CN(C(=O)NC(C)C)C1 | i
O=C(NC1CCCC1)N1CCCCN2[C@H](CO)[C@H](c3ccc(-c4cncnc4)cc3)[C@@H]2C1 | i
CN1C(=O)c2cc(NC(=O)c3cccc(F)c3)ccc2OC[C@@H]2O[C@H](CC(=O)Nc3ccccc3)CC[C@@H]21 | i
C[C@H]1CN([C@@H](C)CO)C(=O)c2cccc(NS(=O)(=O)c3ccc(Cl)cc3)c2O[C@@H]1CN(C)Cc1ccc(C(=O)Nc2ccccc2N)cc1 | i
C[C@@H]1CN([C@@H](C)CO)C(=O)c2cccc(NC(=O)CCCCCC(=O)Nc3ccccc3N)c2O[C@H]1CN(C)Cc1ccc(Cl)c(Cl)c1 | i
CO[C@@H]1CN(C)C(=O)c2cc(NS(=O)(=O)c3ccccc3F)ccc2OC[C@@H](C)NC[C@@H]1C | i
CC(=O)N(C)C[C@@H]1Oc2cc(-c3cccnc3)ccc2S(=O)(=O)N([C@H](C)CO)C[C@H]1C | i
CO[C@@H]1CN(C)C(=O)c2cc(NC(C)=O)ccc2OC[C@H](C)N(Cc2cc(F)ccc2F)C[C@H]1C | i
C[C@@H]1CN([C@@H](C)CO)C(=O)c2cccc(NC(=O)NC3CCCCC3)c2O[C@@H]1CN(C)Cc1ccncc1 | i
C[C@H]1CN([C@@H](C)CO)C(=O)c2cc(NC(=O)CCC(F)(F)F)ccc2O[C@H]1CN(C)S(=O)(=O)c1cn(C)cn1 | i
Cn1cnc(S(=O)(=O)N[C@@H]2CC[C@@H](CC(=O)NCC3CC3)O[C@H]2CO)c1 | i
Cc1noc(C)c1S(=O)(=O)N(C)C[C@@H]1Oc2ccc(NS(=O)(=O)c3ccc(Cl)cc3)cc2CC(=O)N([C@@H](C)CO)C[C@H]1C | i
CCCNC(=O)N1[C@H](CO)[C@H](c2ccccc2)[C@@H]1CNC(=O)c1ccccc1 | i
COc1ccc(NC(=O)Nc2ccc3c(c2)C(=O)N([C@H](C)CO)C[C@H](C)[C@@H](CN(C)C(=O)Nc2ccccc2)OCCCC[C@@H](C)O3)cc1 | i
CN(C)C(=O)c1ccc(-c2ccc([C@H]3[C@H]4CN(CCC(F)(F)F)CCCCN4[C@H]3CO)cc2)cc1 | i
C[C@H](CO)N1C[C@H](C)[C@H](CN(C)CC2CCCCC2)Oc2ccc(NC(=O)NC3CCCCC3)cc2C1=O | i
C[C@@H]1CCCCO[C@H](CN(C)C)[C@@H](C)CN([C@H](C)CO)C(=O)c2cc(NC(=O)CCC(F)(F)F)ccc2O1 | i
C[C@@H]1CCCCO[C@@H](CN(C)Cc2ccncc2)[C@H](C)CN([C@H](C)CO)C(=O)c2cc(N(C)C)ccc2O1 | i
COCC(=O)N1C[C@@H](C)[C@H](OC)CN(C)C(=O)c2ccc(NC(=O)Nc3ccccc3)cc2OC[C@@H]1C | i
CNC[C@H]1Oc2ccc(NC(=O)Nc3ccc(C(F)(F)F)cc3)cc2CC(=O)N([C@H](C)CO)C[C@H]1C | i
CCCNC(=O)N1CC2(C1)CN(Cc1ccccn1)[C@@H](CO)c1c2c2ccc(OC)cc2n1C | i
C[C@H](CO)N1C[C@H](C)[C@H](CN(C)C(=O)Nc2cccc3ccccc23)Oc2ccc(NC(=O)Nc3cccc4ccccc34)cc2C1=O | i
COc1ccc2c3c([nH]c2c1)[C@H](CO)N(CC1CC1)CC31CN(C(=O)C2CCOCC2)C1 | i
CC(C)NC(=O)N1CC2(C1)[C@H](c1ccccc1)[C@H](CO)N2Cc1cccnc1 | i
C[C@@H]1CCCCO[C@@H](CN(C)C(=O)Nc2ccccc2)[C@H](C)CN([C@H](C)CO)C(=O)c2cc(NS(=O)(=O)c3ccccc3)ccc2O1 | i
COc1ccc(CN(C)C[C@H]2OCc3cn(nn3)CCCC(=O)N([C@H](C)CO)C[C@H]2C)cc1 | i
Cc1ccccc1-c1ccc([C@H]2[C@H]3CN(C(=O)Nc4ccccc4)CCCCN3[C@H]2CO)cc1 | i
C[C@@H]1CN([C@H](C)CO)C(=O)CCCn2nncc2CO[C@@H]1CN(C)C(=O)Nc1ccccc1C(F)(F)F | i
CN(C)C(=O)C[C@@H]1CC[C@H](NC(=O)NC2CCCCC2)[C@@H](CO)O1 | i
Cc1ccc(S(=O)(=O)Nc2ccc3c(c2)C(=O)N([C@H](C)CO)C[C@@H](C)[C@@H](CN(C)S(=O)(=O)c2ccc(C)cc2)OCCCC[C@@H](C)O3)cc1 | i
O=C(C[C@H]1CC[C@@H]2[C@H](COC[C@H](O)CN2Cc2cocn2)O1)NCc1cccc(F)c1 | i
CCC(=O)N(C)C[C@@H]1Oc2cc(-c3cccnc3)ccc2S(=O)(=O)N([C@H](C)CO)C[C@H]1C | i
CN1c2ccc(-c3cccc(F)c3)cc2[C@H]2[C@H](CCN2C(=O)c2ccc3c(c2)OCO3)[C@@H]1CO | i
C[C@@H]1CN([C@H](C)CO)C(=O)c2cccc(NS(=O)(=O)c3cccs3)c2O[C@@H]1CN(C)Cc1ccc(Cl)c(Cl)c1 | i
O=C(C[C@@H]1CC[C@@H]2[C@H](COC[C@H](O)CN2C(=O)c2ccncc2)O1)NC1Cc2ccccc2C1 | i
C[C@H]1CN([C@@H](C)CO)C(=O)c2cccc(NC(=O)Nc3ccc(C(F)(F)F)cc3)c2O[C@H]1CN(C)S(=O)(=O)c1cccs1 | i
C[C@H]1CN([C@@H](C)CO)S(=O)(=O)c2ccc(C#CCN(C)C)cc2O[C@H]1CN(C)C(=O)CC1CC1 | i
COc1ccc(S(=O)(=O)N(C)C[C@@H]2Oc3c(NC(=O)Nc4cccc5ccccc45)cccc3C(=O)N([C@H](C)CO)C[C@@H]2C)cc1 | i
Cc1noc(C)c1NC(=O)N[C@@H]1C=C[C@@H](CC(=O)Nc2ccccc2)O[C@H]1CO | i
CCC(=O)N(C)C[C@@H]1Oc2ncc(C#C[C@@H](C)O)cc2C(=O)N([C@@H](C)CO)C[C@H]1C | i
C[C@H](CO)N1C[C@H](C)[C@H](CN(C)C(=O)Nc2ccc(C(F)(F)F)cc2)Oc2ccc(NC(=O)C3CC3)cc2C1=O | i
Cc1noc(C)c1NC(=O)Nc1ccc2c(c1)C(=O)N([C@@H](C)CO)C[C@H](C)[C@@H](CN(C)C(=O)Nc1ccc(C(F)(F)F)cc1)OCCCC[C@H](C)O2 | i
C/C=C/c1ccc2c(c1)O[C@H](CN(C)C(=O)NC1CCCCC1)[C@@H](C)CN([C@H](C)CO)S2(=O)=O | i
C[C@@H]1CCCCO[C@@H](CN(C)C(=O)CCC(F)(F)F)[C@H](C)CN([C@H](C)CO)C(=O)c2cc(NS(C)(=O)=O)ccc2O1 | i
CCCNC(=O)N1C[C@H](C)[C@@H](OC)CN(C)C(=O)c2ccc(NS(=O)(=O)CC(F)(F)F)cc2OC[C@@H]1C | i
C[C@H](CO)N1C[C@H](C)[C@@H](CN(C)C(=O)Nc2cccc(F)c2)OCc2cnnn2CCCC1=O | i
CNC[C@@H]1Oc2ccc(NS(=O)(=O)c3ccc(F)cc3)cc2C(=O)N([C@@H](C)CO)C[C@@H]1C | i
COc1ccc(C#Cc2ccc3c(c2)[C@@H]2[C@@H](CCN2C(=O)NC(C)C)[C@@H](CO)N3C)cc1 | i
CN(C)C(=O)c1cccc(-c2ccc3c(c2)[C@@H]2[C@@H](CCN2C(=O)c2cccnc2)[C@H](CO)N3)c1 | i
COc1cccc(NC(=O)Nc2ccc3c(c2)C(=O)N(C)C[C@@H](OC)[C@H](C)CN(CC2CC2)[C@@H](C)CO3)c1 | i
C[C@H](NC(=O)C[C@@H]1CC[C@@H]2[C@H](COC[C@@H](O)CN2C(=O)Nc2cccc(F)c2)O1)c1ccccc1 | i
CN1c2ccc(-c3ccccc3)cc2[C@H]2[C@H](CCN2C(=O)c2cccc(F)c2)[C@H]1CO | i
CCCNC(=O)C[C@@H]1CC[C@H]2[C@@H](COC[C@@H](O)CN2C(=O)c2cc(Cl)cc(Cl)c2)O1 | i
C[C@@H]1CN([C@H](C)CO)C(=O)c2cc(NS(C)(=O)=O)ccc2O[C@@H](C)CCCCO[C@@H]1CN(C)S(=O)(=O)c1ccccc1 | i
O=C(O)C[C@@H]1CC[C@H](NC(=O)Nc2cc(F)ccc2F)[C@@H](CO)O1 | i

New compounds follow.
smiles | FGF22 binding
C[C@@H]1CN([C@@H](C)CO)C(=O)c2cc(NC(=O)Cc3ccccc3)ccc2O[C@@H](C)CCCCO[C@@H]1CN(C)C(=O)Nc1ccc2c(c1)OCO2 | i
CN(C)C(=O)[C@H]1[C@H](CO)[C@H]2Cn3c(ccc(-c4ccc(F)cc4)c3=O)[C@H]2N1C(=O)c1ccccn1 | i
CN(C)C(=O)C[C@@H]1C[C@@H]2c3cc(NC(=O)Nc4ccc(C(F)(F)F)cc4)ccc3O[C@@H]2[C@H](CO)O1 | i
C[C@@H]1CN([C@@H](C)CO)C(=O)c2cccc(NS(=O)(=O)c3cccs3)c2O[C@H]1CN(C)CC1CCCCC1 | i
COc1ccccc1S(=O)(=O)N[C@H]1CC[C@@H](CCNC(=O)C2CCOCC2)O[C@@H]1CO | i
C[C@@H]1CCCCO[C@@H](CN(C)Cc2ccc(C(F)(F)F)cc2)[C@@H](C)CN([C@@H](C)CO)C(=O)c2cc(NC(=O)CCC(F)(F)F)ccc2O1 | i
CCCN(C)C[C@H]1Oc2cc(C#Cc3ccncc3)ccc2S(=O)(=O)N([C@H](C)CO)C[C@H]1C | i
C[C@@H]1CCCCO[C@H](CN(C)C(=O)Nc2cccc3ccccc23)[C@H](C)CN([C@H](C)CO)C(=O)c2cc(NS(=O)(=O)c3ccccc3)ccc2O1 | i
COc1ccc(NC(=O)Nc2ccc3c(c2)C(=O)N([C@H](C)CO)C[C@H](C)[C@H](CN(C)C(=O)Nc2ccc(C(F)(F)F)cc2)OCCCC[C@@H](C)O3)cc1 | i
O=C(NCC1CC1)[C@H]1[C@H](CO)[C@H]2Cn3c(ccc(-c4ccccc4F)c3=O)[C@@H]1N2Cc1cncnc1 | i
COc1ccc(-c2cnc3c(c2)C(=O)N([C@H](C)CO)C[C@H](C)[C@H](CN(C)C(=O)C2CCOCC2)O3)cc1 | i
CC=Cc1ccc2n(c1=O)C[C@H]1[C@H](CO)[C@@H](C(=O)NCC)N(C(=O)c3cccnc3)[C@@H]21 (mixture of isomers) | i
C[C@H]1CN([C@@H](C)CO)C(=O)Cc2cc(NC(=O)CCC(F)(F)F)ccc2O[C@H]1CN(C)CC1CCCCC1 | i
C[C@H](CO)N1C[C@H](C)[C@H](CN(C)C(=O)Nc2ccc3c(c2)OCO3)Oc2ccc(NC(=O)Cn3cnnn3)cc2C1=O | i
O=C(c1ccccc1F)N1C[C@@H]2[C@H](c3ccccc31)[C@@H](CO)N2C(=O)Nc1ccccc1 | i
O=C(NCC1CC1)[C@@H]1[C@@H](CO)[C@@H]2Cn3c(ccc(-c4ccccc4F)c3=O)[C@H]1N2Cc1cncnc1 | i

7 records picked at random from the list so far, as already listed:
smiles | FGF22 binding
Cc1ccccc1-c1ccc([C@H]2[C@H]3CN(C(=O)Nc4ccccc4)CCCCN3[C@H]2CO)cc1 | i
COc1cccc(NC(=O)Nc2ccc3c(c2)C(=O)N(C)C[C@@H](OC)[C@H](C)CN(CC2CC2)[C@@H](C)CO3)c1 | i
CCCNC(=O)C[C@@H]1CC[C@H]2[C@@H](COC[C@@H](O)CN2C(=O)c2cc(Cl)cc(Cl)c2)O1 | i
CN(C)C(=O)c1cccc(-c2ccc3c(c2)[C@@H]2[C@@H](CCN2C(=O)c2cccnc2)[C@H](CO)N3)c1 | i
Cc1noc(C)c1NC(=O)N[C@@H]1C=C[C@@H](CC(=O)Nc2ccccc2)O[C@H]1CO | i
CCCNC(=O)N1[C@H](CO)[C@H](c2ccccc2)[C@@H]1CNC(=O)c1ccccc1 | i
C[C@@H]1CN([C@@H](C)CO)C(=O)c2cccc(NC(=O)CCCCCC(=O)Nc3ccccc3N)c2O[C@H]1CN(C)Cc1ccc(Cl)c(Cl)c1 | i

(more compounds)
smiles | FGF22 binding
CCCNc1ncnc2ccc(Br)cc12 | i
CO[C@H]1CN(C)C(=O)c2ccc(NC(=O)NC(C)C)cc2OC[C@@H](C)N(C(=O)C2CCC2)C[C@@H]1C | i
COc1ccc(NC(=O)Nc2ccc3c(c2)C(=O)N([C@@H](C)CO)C[C@H](C)[C@H](CN(C)Cc2ccc4c(c2)OCO4)OCCCC[C@@H](C)O3)cc1 | i
C[C@@H]1CN([C@@H](C)CO)C(=O)c2cc(NC(=O)CCCN(C)C)ccc2O[C@@H](C)CCCCO[C@@H]1CN(C)Cc1ccc2c(c1)OCO2 | i
O=C(Nc1ccc(Cl)c(Cl)c1)N[C@H]1CC[C@H](CCn2cc(C3CCCC3)nn2)O[C@@H]1CO | i
C[C@@H]1CN([C@H](C)CO)C(=O)c2cccc(NS(=O)(=O)c3ccc(Cl)cc3)c2O[C@@H]1CN(C)C(=O)NC1CCCCC1 | i
C[C@H](CO)N1C[C@H](C)[C@@H](CN(C)C(=O)Nc2cccc(F)c2)Oc2cc(/C=C/c3ccccc3)ccc2S1(=O)=O | i
COCC#Cc1cnc2c(c1)C(=O)N([C@H](C)CO)C[C@H](C)[C@@H](CN(C)C(=O)Cc1ccccc1)O2 | i
C[C@H](CO)N1C[C@H](C)[C@@H](CN(C)S(=O)(=O)c2ccc(Cl)cc2)Oc2ccc(NC(=O)NC3CCCCC3)cc2CC1=O | i
C/C=C/c1cnc2c(c1)C(=O)N([C@H](C)CO)C[C@@H](C)[C@H](CN(C)C(=O)c1cnccn1)O2 | i

This is a subset. The share of hits here may be higher or lower than overall.
